# eIF4H inh: inhibitors of RNA binding by human eIF4H; Q15056; eIF4H fluorescence polarization binding assay; inhibition, % at 35 µM; hit rate 0.94% among 290,000;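 active = 50% or more with normal probe brightness, or confirmed in later tests; inconclusive = above 50% with abnormal brightness, or retests that disagree; inactive = below 50% or failed in later tests; about a fifth of its hits are not listed in these tables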;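 also: calls also rest on retests at 20 µM and on dose response follow-up; 0% = protein and probe with vehicle and 100% = probe without protein; strong numbers were not always called active; many hits fall short of the cut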
# PABP FP inh: blocks human PABP binding to poly(A) RNA; P11940; hit rate 1% among 290,000; fluorescence polarization; inhibition, % at 35 µM; AID 2014;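 active = 50% or more with normal probe brightness, or confirmed in later tests; inconclusive = above 50% with abnormal brightness, or retests that disagree; inactive = below 50% or failed in later tests; about a fifth of its hits are not listed in these tables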;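 also: calls also rest on retests at 20 µM and on dose response follow-up; controls were probe without protein and protein plus probe with vehicle; some compounds called inactive have numbers as strong as hits; many hits fall short of the cut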
# Target sequence (P11940 whole entry, looked up): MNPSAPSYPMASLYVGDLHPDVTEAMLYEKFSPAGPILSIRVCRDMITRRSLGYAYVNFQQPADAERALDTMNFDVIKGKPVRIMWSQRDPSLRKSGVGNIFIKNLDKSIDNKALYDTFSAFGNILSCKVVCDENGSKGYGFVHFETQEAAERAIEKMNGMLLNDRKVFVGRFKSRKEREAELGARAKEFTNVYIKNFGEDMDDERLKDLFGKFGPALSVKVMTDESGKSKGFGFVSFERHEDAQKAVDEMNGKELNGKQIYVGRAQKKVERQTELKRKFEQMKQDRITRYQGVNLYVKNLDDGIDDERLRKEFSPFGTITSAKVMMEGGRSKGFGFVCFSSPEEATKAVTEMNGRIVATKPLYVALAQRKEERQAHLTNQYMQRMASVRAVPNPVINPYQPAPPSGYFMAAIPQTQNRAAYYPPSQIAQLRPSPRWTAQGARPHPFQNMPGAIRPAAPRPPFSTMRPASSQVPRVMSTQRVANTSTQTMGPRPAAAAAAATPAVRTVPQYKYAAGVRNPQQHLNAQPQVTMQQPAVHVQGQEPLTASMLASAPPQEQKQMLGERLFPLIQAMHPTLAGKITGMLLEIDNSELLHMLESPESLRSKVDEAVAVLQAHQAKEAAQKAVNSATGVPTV
# Rce1 inh: blocks yeast Ras-converting enzyme; Q03530; yeast membranes, quenched prenylated peptide cleavage fluorescence; calls only; hit rate 0.27% among 290,000;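 active = fall in fluorescence gain of 50% or more versus controls, with final raw signal at or below 3038400; inconclusive = same 50% fall but final raw signal above 3038400; inactive = fall in fluorescence gain under 50%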;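 also: plate controls were neutral control wells for no effect and wells lacking membranes for full effect; tested at 10 µM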
# Target sequence (Q03530 whole entry, looked up): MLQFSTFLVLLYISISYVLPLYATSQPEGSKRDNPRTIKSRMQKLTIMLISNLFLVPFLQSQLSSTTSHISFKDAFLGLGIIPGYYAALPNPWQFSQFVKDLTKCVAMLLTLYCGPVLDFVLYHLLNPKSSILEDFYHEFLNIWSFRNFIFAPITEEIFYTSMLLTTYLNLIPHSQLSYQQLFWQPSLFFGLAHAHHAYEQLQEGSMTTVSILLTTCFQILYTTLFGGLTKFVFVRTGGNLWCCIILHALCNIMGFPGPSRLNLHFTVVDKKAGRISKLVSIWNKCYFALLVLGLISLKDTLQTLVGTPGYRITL
# CSC inhib: blocks cancer stem cells. cancer stem cell-like cells viability, luminescence. inhibition, % at 7.5 µM. hit rate 1.1% among 300,000. AID 2717;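 active = mean at 75% or more and at least half the replicates too; inconclusive = mean and replicates disagree; tested in HMLE shEcad cells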;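 also: 0% = median of negative and 100% = median of positive control wells; the first replicate is given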
# Env fusion inh: blocks HIV Env-driven cell-cell fusion. HeLa-JRFL Env/CEM21 cell fusion, luciferase. inhibition, % at 12.3 µM. hit rate 1.1% among 360,000. AID 651610;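 active = mean replicate inhibition score of at least 50 and every replicate individually at or above 50; inconclusive = only one of the two criteria met; inactive = mean below 50 and not all replicates reaching 50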;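 also: 0% = plate neutral controls and 100% = maraviroc near 300 nM; one replicate is shown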
# Yeast UUG start: modulators of start codon recognition fidelity in yeast | hit rate 0.13% among 350,000 | activity score, % at 18.7 µM | S. cerevisiae UUG-firefly luciferase reporter, luminescence/redox ratio;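 active = replicate mean at a twofold rise or more, about +100% in these data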;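 also: firefly luciferase made from a UUG start codon reports start codon fidelity; reporter light over untreated wells divided by growth signal over untreated wells; some hits fall short of that in this replicate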
# MT1-MMP act inh: inhibitors of human MT1-MMP activation; HT1080 RFP-PRO-GFP cells, GFP/RFP ratio fluorescence, overnight; percent of plate control window, DMSO zero; GFP/RFP ratio change, % at 20 µM; P50281; AID 651647; hit rate 0.061% among 360,000;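 active = GFP/RFP ratio change of at least 30% with cell ATP level not reduced by more than half and red fluorescence within 50% of control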; also: strong numbers were not always called active
#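 Compound: 20 µM single dose, 1% DMSO / System: HT1080 RFP-PRO-GFP cells / Controls: DMSO and RFP-L50D-GFP cell wells / Read-out basis: GFP/RFP fluorescence ratio / Schedule: overnight compound exposure at 37 °C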
# MT1-MMP act inh RFP: second read-out of MT1-MMP act inh, no call of its own (marks repeat the call); RFP signal change, %; measured here: RFP expression control read;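 0 = vehicle wells; hits needed this value within 50% of zero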
# * = called active by the depositor; i = inactive; ? = inconclusive; nt = no result given.
SMILES,eIF4H inh,PABP FP inh,Rce1 inh,CSC inhib,Env fusion inh,Yeast UUG start,MT1-MMP act inh,MT1-MMP act inh RFP
COc1ccc(CNC(=O)C[C@@H]2C[C@H]3c4cc(NC(=O)C5CCC5)ccc4O[C@H]3[C@@H](CO)O2)cc1,nt,nt,nt,nt,4,-6,2,-1
COc1ccccc1NC(=S)NC(=O)CC(C)C,-14,10,i,-7,nt,-15,0,2
O=C(c1ccco1)N1CCN(c2nc(C3CC3)nc3sc4c(c23)CCCC4)CC1,-6,-1,i,18,nt,-10,-8,-15
COc1ccccc1/C=C1/SC(=O)N(CCC(=O)Nc2ccc(S(=O)(=O)Nc3nccs3)cc2)C1=O,25,-2,i,nt,nt,nt,7,-2
CN1CCC(=C(c2ccccc2)c2ccc(Br)cc2)CC1,nt,nt,i,3,17,nt,-16,-10
O=C(Cn1cnc2c(nnn2Cc2ccccc2)c1=O)c1ccccc1,0,-4,i,-6,-9,-5,1,3
O=C(NCc1n[nH]c(=S)n1-c1ccc(F)cc1)c1ccc(S(=O)(=O)N2CCOCC2)cc1,-13,-9,i,6,7,nt,8,7
COc1ccc(C(=O)C[n+]2cccc(C)c2)cc1,3,8,i,-16,-2,nt,-1,0
CC(C)CCOP(=O)(c1ccc(N(C)C)cc1)C(O)c1ccc(N(C)C)cc1 (stereo unspecified),6,-8,i,12,14,-14,1,-2
CCOC(=O)c1c(CSc2ccsc2)n(C)c2cc(Br)c(O)c(CN(C)C)c12,-2,-7,i,8,87*,nt,0,-2
COc1ccc(CN2C(=O)c3oc4ccccc4c(=O)c3C2c2ccc(O)c(OC)c2)cc1 (stereo unspecified),-12,-10,i,nt,-3,-15,-5,-6
O=C(NCC(c1cccnc1)N1CCOCC1)c1cccc(Cl)c1 (stereo unspecified),-11,0,i,-8,-10,-16,9,1
Cc1ccc(S(=O)(=O)NCCC(=O)NCC(c2cccs2)N2CCOCC2)cc1 (stereo unspecified),nt,nt,i,-11,-5,-11,-1,3
Fc1ccccc1Oc1nc(-c2ccncc2)nc2ccccc12,-4,0,i,20,28,nt,-6,-6
CC(C)NS(=O)(=O)c1ccc(CCC(=O)NCc2ccccn2)cc1,10,-3,i,-12,7,-16,-3,-4
Cc1ccc(C(=O)CSc2n[nH]c(C)n2)cc1,-3,0,i,-3,-79,-3,2,5
O=C(N/N=C/c1c(-c2ccccc2)[nH]c2ccccc12)c1cccnc1,0,-15,i,4,-5,nt,1,-5
Cn1c(=O)n(CC(=O)NCC2CCCO2)c(=O)c2c3c(sc21)CCCC3 (stereo unspecified),-8,-3,i,3,5,5,-1,3
COc1cccc(C(=O)Oc2ccc3ccc(O)cc3c2)c1,-9,1,i,-2,nt,nt,nt,nt
Cc1nnc(Oc2ccc([N+](=O)[O-])cc2)c2ccccc12,-5,-7,i,4,-30,-6,-3,-1
O=C(NN1CCOCC1)c1cc(-c2ccc(Cl)c(Cl)c2)nc2ccccc12,-2,11,i,4,35,-7,6,3
O=C(NCc1ccco1)C1CCN(S(=O)(=O)c2ccc(-n3cnnn3)cc2)CC1,-3,2,i,-6,nt,-3,7,3
Cc1cc(CC(=O)O)n(C)c1C(=O)c1ccc(Cl)cc1,nt,nt,nt,-8,nt,-7,-1,6
Cc1cc(C)cc(C(=O)NCC(=O)N2CCC(C(N)=O)CC2)c1,nt,nt,nt,-16,-13,-4,1,2
CCn1c(=O)n(CCc2ccccc2)c(=O)c2c3c(sc21)CCCC3,2,-7,i,40,nt,-7,-9,-7
CC(C)(C)c1ccc(C(=O)C2CCCN(C(=O)c3ccccn3)C2)cc1 (stereo unspecified),-2,-8,i,nt,5,5,0,-9
O=C(Nc1cccc(O)c1)c1ccc(NC(=O)C2CCCO2)cc1 (stereo unspecified),7,-7,i,4,-9,-32,-1,-1
O=C(NNC(=O)c1ccc(-c2ccccc2)cc1)Nc1ccccc1,nt,nt,i,4,17,nt,1,0
Nc1ccccc1C(=O)Nc1ccc(Cl)cc1Cl,1,24,i,6,-56,4,-1,-2
Cc1nc2ccc(NC(=O)NCc3ccco3)cc2s1,-5,3,i,-2,nt,10,7,2

# Quoted from above (3 entries):
SMILES,eIF4H inh,PABP FP inh,Rce1 inh,CSC inhib,Env fusion inh,Yeast UUG start,MT1-MMP act inh,MT1-MMP act inh RFP
O=C(NN1CCOCC1)c1cc(-c2ccc(Cl)c(Cl)c2)nc2ccccc12,-2,11,i,4,35,-7,6,3
O=C(NCc1ccco1)C1CCN(S(=O)(=O)c2ccc(-n3cnnn3)cc2)CC1,-3,2,i,-6,nt,-3,7,3
Cc1cc(CC(=O)O)n(C)c1C(=O)c1ccc(Cl)cc1,nt,nt,nt,-8,nt,-7,-1,6

# Later entries
SMILES,eIF4H inh,PABP FP inh,Rce1 inh,CSC inhib,Env fusion inh,Yeast UUG start,MT1-MMP act inh,MT1-MMP act inh RFP
CC(C#Cc1ccc2c(c1)COc1c3ccccc3nn1-2)OC(C)(C)C (stereo unspecified),nt,nt,i,32,-58,2,-3,-18
O=C(NCC(=O)N(Cc1ccccc1)C(C(=O)NCC1CCCO1)c1ccccc1)c1cccs1 (stereo unspecified),-9,-6,i,-2,nt,15,0,1
Cn1c(SCc2ccccc2)nnc1-c1ccco1,-10,20,i,-1,-35,nt,-1,4
COC(=O)Cc1[nH]n(-c2ccccc2)c(=O)c1C=Nc1ccc(C)cc1,-7,8,i,-4,-56,-1,-5,-2
COc1cc(C(C)=O)ccc1OCc1nnc(-c2ccccc2Br)o1,-5,1,i,-21,-9,-6,2,-1
CCOC(=O)Cc1nnc2c(Nc3ccc(Cl)cc3)nc3nonc3n12,0,13,i,56,?,-12,-8,-16
Cc1cc(C)cc(N(CC(=O)Nc2ccccc2-c2ccccc2)S(=O)(=O)c2ccccc2)c1,-9,-2,i,7,47,-13,-2,0
O=C(O)c1cc(-c2ccc(Cl)c(Cl)c2)n(-c2ccccc2)n1,0,8,i,-4,?,nt,-3,-2
COC(=O)c1cc2nc(-c3ccc(C)cc3)cc(C(F)(F)F)n2n1,-7,-12,i,10,14,-24,6,7
O=C(NCc1ccncc1)c1c(F)c(F)c(F)c(F)c1F,11,4,i,-2,-16,nt,-3,-2
CC(C)(CNC(=O)c1sc2cc(Cl)ccc2c1Cl)N1CCOCC1,nt,nt,i,69,nt,1,-5,-18
O=C(Nc1cccc(Cl)c1Cl)c1snnc1-c1ccccc1,-11,-6,i,-10,nt,0,-4,-4
COc1ccc(S(=O)(=O)N2CCC(NC(=O)OCc3c(Cl)cccc3Cl)CC2)cc1,-15,-10,i,1,-103,-13,2,-3
COc1ccc(NC(=O)C(c2ccc(C)cc2)N(C)C(=O)CC2NC(=O)NC2=O)cc1 (stereo unspecified),0,1,i,-1,-28,-2,-2,7
O=C(OCC(=O)N1CCOCC1)c1cc(F)c(F)cc1Cl,-3,-4,i,-12,3,-17,-1,3
C=CCNC(=S)NNC(=O)c1csc(C)c1CC,-3,11,i,-12,nt,-16,9,3
COn1c(SCc2cccc(Cl)c2)nc2ccccc2c1=O,-10,-4,i,nt,44,-16,0,-5
COC(=O)C(Cc1ccc(OC(=O)c2ccccc2Cl)cc1)N1Cc2ccccc2C1=O (stereo unspecified),4,-4,i,-1,nt,-4,-1,-7
CCN(CC)S(=O)(=O)c1cccc(C(=O)NCC(c2ccccc2)N(C)C)c1 (stereo unspecified),-1,-3,i,-5,3,nt,2,3
Nc1ccccc1NC(=O)c1ccccc1,-8,-3,i,23,-39,-17,10,6
O=C(COC(=O)c1ccccc1C(=O)c1ccc(Cl)c([N+](=O)[O-])c1)NC1CCCCCC1,-4,5,i,-6,4,-1,-17,-38
CCCCC(=O)Nc1nn(CC)c2nc3c(C)cccc3cc12,2,-1,i,nt,-9,7,-2,-2
O=C(NCCS(=O)(=O)NCc1cccnc1)c1ccccc1,nt,nt,i,-15,-5,nt,2,2
CC(C)NC(=O)C1CCCN(c2nnc(-n3cccc3)s2)C1 (stereo unspecified),-2,-11,i,6,-34,-2,nt,nt
COc1ccc(-c2cc3c(=O)n(CC(=O)Nc4cccc(Cl)c4)ncn3n2)cc1,-15,10,i,6,-7,nt,-6,-4
O=C(COc1ccc(Cl)cc1Cl)NC(=O)NC1CCCC1,nt,nt,nt,nt,-57,-16,3,5
CC1(c2ccc3ccccc3c2)NC(=O)N(CC(=O)N2CCN(S(=O)(=O)c3ccccc3F)CC2)C1=O (stereo unspecified),-13,-1,i,0,36,-9,-5,-13
CC(=O)CSc1nc2cc3c(cc2cc1C#N)OCCO3,49,-9,i,-8,-34,nt,-105,-1
CC(C)(C)NC(=O)COc1ccc(-c2ccccc2)cc1,5,-3,i,-4,-29,-16,4,-1
Cc1ccc(SCC(=O)NCC2CCCO2)cc1 (stereo unspecified),-9,11,i,-9,-2,nt,-2,2
CCN(CC(=O)NCc1ccc(Cl)cc1)C(=O)CN1C(=O)NC(CC)(c2ccccc2)C1=O (stereo unspecified),8,25,i,1,15,4,-1,0
O=C(c1ccco1)N1CCN(S(=O)(=O)c2ccc(Oc3ccccc3)cc2)CC1,-6,-4,i,-5,nt,0,-5,-12
Cc1ccccc1-c1cc2nc(C)c(Cl)c(=O)n2[nH]1,nt,nt,i,6,-22,-13,0,0
N#CCc1c(C#N)c(N)nc(Nc2ccccc2)c1C#N,-4,-2,i,6,16,-16,-4,4
O=C(NCCN1CCN(C(=O)Nc2ccccc2)CC1)Nc1ccccc1,11,10,i,-4,-8,3,3,6
Cc1ccc(S(=O)(=O)N2[C@@H](c3cccc(Cl)c3)C(C(=O)O)=CC[C@H]2c2cccs2)cc1,nt,nt,nt,-10,-22,19,0,2
c1ccc(NCC2OCc3ccccc3CO2)cc1,-8,-4,i,5,nt,nt,5,1
N#Cc1cc([N+](=O)[O-])ccc1NCC1CCCO1 (stereo unspecified),-5,-3,i,-6,18,-6,nt,nt
COc1ccc2c(c1)c1c3n2CCN(C)C3=NCC1,-4,1,i,4,nt,-3,7,5
CC(=O)c1sc(NC(=O)c2c(F)cccc2F)nc1C,-8,4,i,-2,nt,-12,0,3
Cc1ccc(N(CCCCN2C(=O)c3ccccc3C2=O)C(=O)c2cccc([N+](=O)[O-])c2)cc1,-1,7,i,0,25,1,-1,-6
COc1ccc(Cc2nnc(NC(=O)C3CCN(C(=O)c4ccco4)CC3)s2)cc1,-12,6,i,7,-8,-7,0,-14
CCCCN(CC)CCCNC(=O)c1ccc(CSc2nc3ccncc3[nH]2)cc1,-8,11,i,-19,15,-30,1,4
O=C(O)CCCN1C(=O)C2C3CC(C2C1=O)C1C(c2ccccc2)c2sc(=O)n(-c4ccccc4)c2SC31 (stereo unspecified),-4,3,i,17,8,nt,-7,0
COC(=O)CC1(C(=O)OC)Oc2ccc(Br)cc2C(=O)N1c1cc(Cl)c(Cl)cc1Cl (stereo unspecified),11,11,i,28,21,nt,nt,nt
COC(=O)c1ccc(N(CC(=O)NCC2CCCO2)C(=O)CCC(=O)Nc2cc(C)on2)cc1 (stereo unspecified),10,9,i,1,4,-5,3,6
Cc1nn(C)c(C)c1NS(=O)(=O)c1ccccc1,-5,7,i,nt,nt,-19,1,4
C=CCc1ccc(OCC(O)CO)c(OC)c1 (stereo unspecified),2,2,i,nt,3,5,-1,2
NNC(=O)c1cc2cc(Oc3ccccc3)ccc2[nH]1,2,11,i,nt,13,-11,-4,0
CCNC(=O)c1ccc(N(C)S(=O)(=O)c2cccs2)cc1,-7,-14,i,6,6,-5,6,-1
CN1C(=O)CC(c2ccco2)Sc2ccccc21 (stereo unspecified),-4,0,i,-4,-147,-14,5,8

# Bioassay records: PubChem, several laboratories
